Rango release inh: inhibition of RanGTP-driven Rango-importin beta dissociation | Biochemical FRET Rango-importin beta, RanGTP-induced dissociation | Potency, µM (series often up to 46.1 µM), without a hit: at the top dose activity change, negative = inhibition | actives 0.071% (n = 340,000); active means falling FRET ratio curve, often poorly fitted, with flat reads before Ran was added; inconclusive means other falling curves, or compound fluorescence or quenching; inactive means flat or rising ratio curve;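 further: potency means the concentration at half of the fitted maximal effect; % of control where 0% means no effect; nearly all actives have a fitted effect of over 45% in size; -100% = wells without RanGTP and RCC1; the record marks most hits as doubtful in a second field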
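Quantitative HTS using a FRET biosensor: 0.1 uM Rango, 0.25 uM importin beta, 0.6 uM Ran, 2 mM GTP, 0.2 uM RCC1 final, PBS with DTT, Tween-20 and BSA. Post-read taken 45 min after Ran addition.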
miR-21 FLuc: raises the signal of a miR-21 reporter; HeLa miR-21 FLuc reporter, luciferase, 48 h; 340,000 tested, under 10 active; Potency, µM (titrated, usually from 38.3 µM), for the others: top-dose reporter change, positive = more light; AID 2288; active = well fitted rising curve with a large enough effect; inconclusive = small, poorly fitted or top-dose-only effect; inactive = no such curve, though single readings can be large or run the other way;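 further: % of control where 0% means no effect; miR-21 action dims this reporter so a rising signal means less miR-21 action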
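HeLa cells endogenously expressing miR-21, stably carrying CMV-driven firefly luciferase with a downstream miR-21 binding site, 2000 cells/well. Titrations up to approximately 40 uM, 48 hours; luciferase luminescence read.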
GLA inh pH 4.5: blocks human alpha-galactosidase A at pH 4.5. 230,000 tested, under 10 active. P06280. activity change, negative = inhibition, % at 105 µM. AID 1467. purified enzyme, 4-MU-alpha-Gal fluorescence, pH 4.5; inconclusive = small, poorly fitted or top-dose-only inhibition, or a rising curve; inactive = flat fitted curve, though single readings scatter; no compound was filed as active;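 further: 0% = full activity with enzyme and -100% = basal without enzyme; dose as in the result columns while the protocol names 77 µM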
Rango-impB inh: inhibitors of Rango-importin beta complex formation; Q14974; Potency, µM (doses to about 92.2 µM), inactives show at the top dose inhibition of complex formation; actives 0.031% (n = 340,000); Rango CFP/YFP FRET sensor + importin beta, 45 min; active = rising FRET ratio curve, often small or poorly fitted; inconclusive = mostly compound fluorescence or quenching in the first reads; inactive = flat curves in all reads;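 further: potency means the concentration at half of the fitted maximal effect; 0% = DMSO wells and 100% = buffer wells lacking importin beta; nearly all actives have a fitted effect of over 15% in size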
Target sequence (Q14974 whole entry, looked up): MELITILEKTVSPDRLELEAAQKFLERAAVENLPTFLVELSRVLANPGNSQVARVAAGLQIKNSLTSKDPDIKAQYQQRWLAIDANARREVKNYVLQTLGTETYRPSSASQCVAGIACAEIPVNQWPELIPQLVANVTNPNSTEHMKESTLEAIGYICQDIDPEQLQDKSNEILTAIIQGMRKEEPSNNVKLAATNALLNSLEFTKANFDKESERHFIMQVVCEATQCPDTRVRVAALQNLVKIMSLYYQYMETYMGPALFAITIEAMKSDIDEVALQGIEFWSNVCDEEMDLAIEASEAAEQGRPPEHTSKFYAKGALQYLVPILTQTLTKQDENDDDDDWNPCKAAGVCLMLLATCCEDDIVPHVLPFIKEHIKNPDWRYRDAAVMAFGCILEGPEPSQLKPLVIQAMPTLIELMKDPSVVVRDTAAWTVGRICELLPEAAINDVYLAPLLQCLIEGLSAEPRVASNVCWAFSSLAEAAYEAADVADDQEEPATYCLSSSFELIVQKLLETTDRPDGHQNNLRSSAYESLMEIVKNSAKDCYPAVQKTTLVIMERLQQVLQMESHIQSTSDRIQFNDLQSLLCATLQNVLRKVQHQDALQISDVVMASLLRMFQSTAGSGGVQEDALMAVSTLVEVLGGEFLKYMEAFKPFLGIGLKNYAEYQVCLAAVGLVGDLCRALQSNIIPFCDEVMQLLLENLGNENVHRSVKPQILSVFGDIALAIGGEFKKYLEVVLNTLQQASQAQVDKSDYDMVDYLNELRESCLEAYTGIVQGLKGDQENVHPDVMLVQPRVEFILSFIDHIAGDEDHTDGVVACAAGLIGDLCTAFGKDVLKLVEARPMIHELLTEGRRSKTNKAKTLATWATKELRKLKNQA
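FRET biosensor (snurportin 1 IBB flanked by EYFP and cerulean), 50 nM, with compound 5 min, then 0.125 microM importin beta in PBS, 1 mM DTT, 0.02% Tween-20, 0.1% BSA. CFP/YFP ratio read after 45 min at room temperature; pre-read flags interference.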
Starred values were filed as active, the others as inactive; ? = inconclusive; · = not tested or not shown; & = joins results of further samples.

SMILES	Rango release inh	miR-21 FLuc	GLA inh pH 4.5	Rango-impB inh
CCc1ccc2[nH]c(=O)c(CN(CCN(C)C)C(=O)Nc3ccccc3)cc2c1	-1.7%	-12.5%	-21.7	-0.3%
O=C(Nc1cccc2c1C(=O)NC2=O)c1cccc(N2C(=O)CCC2=O)c1	8.9%	-1.0%	5.3	0.6%
CCC1(CC)Cc2ccccc2-c2nc(CN3CCOCC3)[nH]c(=O)c21	-4.7%	-5.8%	1.5	-2.4%
Cc1cc(C)c(NC(=O)CNC(=O)Cc2ccc(S(=O)(=O)N3CCOCC3)s2)c(C)c1	-11.1%	·	·	-0.9%
Cc1ccc(-c2nc3ccccc3[nH]2)cc1NC(=O)c1sc2ccccc2c1Cl	15.7%	-16.5%	-4.2	3.5%
CCC(C)NC(=O)C1CCC(CNS(=O)(=O)c2ccc3c(c2)CC(C)N3C(C)=O)CC1 (configuration not stated)	-4.6%	0.2%	·	0.1%
Clc1nc2ccccc2cc1/C=N/Nc1nc2ccccc2[nH]1	-16.2%	-49.5%	-3.6	?
CS(=O)(=O)N1CCC(NC(=O)Cc2ccccc2)CC1	1.2%	-7.8%	-6.5	0.2%
Nc1nnc(SCC(=O)NC2CCCc3ccccc32)s1 (configuration not stated)	15.3%	1.0%	1.2	-3.8%
O=C(CCNC(=O)N1CCn2c1nc1ccccc12)NCc1ccccc1Cl	-11.2%	-6.9%	·	1.3%
CCCn1c(NC(=O)c2ccccc2Br)nc2ccccc21	-0.5%	13.6%	-17.5	-0.7%
CC(=NCCCn1ccnc1)c1c(-c2ccccc2)[nH]n(-c2nc3ccccc3s2)c1=O	-2.5%	0.5%	-1.9	-5.0%
COc1ccc(N(C)C(=O)c2cn(C)c(=O)c3cc(OC)c(OC)cc23)cc1	42.1%	-9.5%&-14.2%	·	4.1%
O=C(CSc1nnc(CNC(=O)c2ccco2)o1)Nc1ccc(F)cc1	4.6%	0.7%	·	4.8%
CC(C)c1ccc2c(c1)CCC1C(C)(CN)CCCC21C (configuration not stated)	-7.3%	?	-5.0	-0.9%
Cc1ccc(Nc2nc(-c3ccncc3)cs2)cc1	8.7%	-69.0%	-0.2	-1.1%
O=C(COC(=O)c1ccncc1)Nc1cc(S(=O)(=O)N2CCOCC2)ccc1Cl	-12.5%	·	·	-0.4%
C=CCOn1c(=O)c(C)[n+]([O-])c2ccccc21	1.5%	0.5%	0.4	-1.1%
CCCN1C(=O)/C(=c2\sc3nc(=O)c(Cc4ccc(C)cc4)nn3c2=O)c2ccccc21	-11.9%	-0.3%	6.0	2.1%
Cc1noc(C)c1S(=O)(=O)Nc1cccc(CO)c1	4.7%	1.2%	·	1.3%
Cc1cc(C2(c3ccc(O)c(C)c3)OC(=O)c3ccccc32)ccc1O	-0.8%	-18.0%	-7.6	-4.1%
C1CCN=C(Nc2nc3c(s2)CCCC3)CC1	7.2%	-51.7%	0.2	5.2%
COC(=O)Cn1cc(S(=O)(=O)NCc2ccc(C)cc2)c2cc([N+](=O)[O-])ccc21	9.8%	3.1%	·	0.8%
COc1ccc(Nc2nc(N)c([N+](=O)[O-])c(NCc3ccccc3)n2)cc1	12.4%	-15.8%	-14.9	0.1%
CC(=O)/C(C=Nc1noc(C)c1Br)=C(\C)O	-11.1%	-0.6%	-4.8	2.9%

Part of the list above with just GLA inh pH 4.5 and Rango-impB inh:
| structure | GLA inh pH 4.5 | Rango-impB inh |
| --- | --- | --- |
| O=C(Nc1cccc2c1C(=O)NC2=O)c1cccc(N2C(=O)CCC2=O)c1 | 5.3 | 0.6% |
| CCC1(CC)Cc2ccccc2-c2nc(CN3CCOCC3)[nH]c(=O)c21 | 1.5 | -2.4% |

Shown with two lines to a compound: part of the list above
The line under a structure holds: Rango release inh	miR-21 FLuc	GLA inh pH 4.5	Rango-impB inh
- COc1ccc(Nc2nc(N)c([N+](=O)[O-])c(NCc3ccccc3)n2)cc1
    12.4%	-15.8%	-14.9	0.1%
- C=CCOn1c(=O)c(C)[n+]([O-])c2ccccc21
    1.5%	0.5%	0.4	-1.1%
- CCCN1C(=O)/C(=c2\sc3nc(=O)c(Cc4ccc(C)cc4)nn3c2=O)c2ccccc21
    -11.9%	-0.3%	6.0	2.1%

The results go on:
SMILES	Rango release inh	miR-21 FLuc	GLA inh pH 4.5	Rango-impB inh
CC1(C)COC(=S)N1CCC#N	-6.0%	·	·	-1.6%
Cc1cc(C)n(CC(=O)NC2CCCc3c2cnn3-c2ccccc2F)n1 (configuration not stated)	-0.3%	-0.5%	·	0.5%
CCOCCCNC(=S)N1CCCC(c2nc3ccc(C)cc3[nH]2)C1 (configuration not stated)	0.7%	1.1%	3.0	1.3%
Cc1ccccc1C(=O)Nc1ccc(C(=O)N/N=C/c2ccc(O)cc2)cc1	-3.5%	14.4%	·	0.7%
Cc1ccsc1C(=O)NCc1ccccc1Cl	1.5%	-24.4%	·	4.4%
Cn1c(=O)c2c(ncn2CC(=O)N(Cc2ccccc2)c2ccccn2)n(C)c1=O	-5.2%	-17.6%	1.8	5.2%
O=C(Cn1cnc2c(OCc3ccccc3)ncnc21)NCC1CCCO1 (configuration not stated)	-0.9%	·	·	1.8%
CCC(=O)NC(=S)Nc1ccc(NC(=O)COc2ccccc2)cc1	0.4%	-0.2%	7.2	0.1%
CC(C)(C)OC(=O)N1CCC[C@H]1c1nnc(SCc2ccc(Cl)cc2Cl)o1	0.1%	3.3%	-5.9	-0.9%
O=C(c1cccc(-n2cccc2)c1)N1CCN(S(=O)(=O)c2c(F)cccc2F)CC1	-2.7%	0.1%	·	0.2%
CN(CCc1ccccn1)C(=S)Nc1ccc(Cl)cc1Cl	-18.0%	-27.8%	3.3	3.2%
COc1ccc(C(=O)Nc2ccc(NC(=O)c3ccccc3OC)nc2)cc1	15.5%	5.6%	·	1.4%
COc1ccc(NC(=O)CCN2CCN(S(=O)(=O)c3cc(Cl)ccc3Cl)CC2)cc1	0.8%	0.2%	0.0	-1.6%
O=C(OCc1ccccn1)C1CCN(C(=O)c2ccc(Cl)cc2)CC1	-13.5%	·	·	-0.3%
COc1ccc(N2CCN(C(CNC(=O)C(=O)NCCCn3ccnc3)c3cccnc3)CC2)cc1 (configuration not stated)	5.2%	-1.6%	10.9	1.5%
C[C@H](NC(=O)OC(C)(C)C)c1nnc(SCC(=O)Nc2cccc(Cl)c2)o1	8.3%	-1.8%	·	-0.2%
c1ccc(CCNC2=NCCCS2)cc1	-3.8%	-9.2%	-0.1	-0.7%
CCCCc1c(C)nc2ccccc2c1SCCC(=O)O	5.4%	-10.2%	-2.3	0.2%
COc1ccc(C2CC(c3ccccc3)=NN2C(=O)COC(=O)c2cc(S(=O)(=O)N3CCOCC3)ccc2Cl)cc1 (configuration not stated)	10.0%	-7.8%	-10.5	-5.4%
CC(=O)CCc1c(C)[nH]c2ccccc2c1=O	2.9%	-4.9%	-18.0	2.8%
COCCn1c(=NC(=O)/C=C/c2cccs2)sc2cc(NC(C)=O)ccc21	?	-11.8%	-0.4	?
CC(=O)Nc1ccc(NC(=O)c2ccc(N(C)S(=O)(=O)c3ccc(C)cc3)cc2)cc1	0.5%	-7.3%	·	-0.6%
C=CCn1c(SCn2nnc3ccccc3c2=O)nc2scc(-c3cccs3)c2c1=O	-4.4%	-4.8%	1.4	-1.5%
CN1CCN(CCOc2cccc(Cl)c2)CC1	0.3%	-9.2%	-19.2	3.6%
Cn1ncc(Cl)c1C(=O)Nc1ccncc1	19.2%	-5.6%	-2.4	-0.2%
New compounds follow.
SMILES	Rango release inh	miR-21 FLuc	GLA inh pH 4.5	Rango-impB inh
CCCCC1S/C(=N/N=C/c2ccc(OC)cc2)N(Cc2ccc(OC)cc2)C1=O (configuration not stated)	16.0%	-1.2%	9.0	3.3%
CCN(CC)c1cccc(OC(=O)c2cccnc2Cl)c1	3.7%	-0.5%	·	-1.1%
COC(=O)COc1ccc2cc(-c3ccccc3)c(=O)oc2c1	-8.3%	0.6%	·	-0.4%
CCN(c1ccccc1)S(=O)(=O)c1cc(NC(=O)COC(=O)C2CC2)ccc1Cl	0.4%	-0.5%	-15.0	-2.9%
Cc1ccnc(NC(=O)C2CCN(S(=O)(=O)c3ccc4c(c3)CC(C)N4C(=O)C3CCC3)CC2)c1 (configuration not stated)	5.9%	23.5%	·	-0.7%
CCN1C(=O)[C@H]2[C@@H](c3ccc(C)cc3)N3C(=O)N(c4cccc(Cl)c4)C(=O)[C@@]3(CC(C)C)[C@H]2C1=O	-1.2%	·	·	?
Cn1c(SCC(=O)Nc2ccc(NC(=O)c3cccc(F)c3)cc2)nnc1-c1ccncc1	0.9%	-31.5%	·	3.0%
CC(Oc1ccc(-c2ccccc2)c(F)c1)c1ccn(S(=O)(=O)c2ccc(Br)cc2)n1 (configuration not stated)	-4.3%	1.5%	-17.1	-0.6%
CCOCCCNC(=O)c1ccc(OC2CCN(C(C)=O)CC2)c(OC)c1	0.8%	1.9%	·	0.9%
CC(C)(C)OC(=O)N1CCC[C@H]1c1nnc(SCc2ccccc2F)o1	0.9%	-16.1%	3.1	7.4%
COc1ccc(OCCSc2nnc(-c3ccc(OC)cc3)n2N)cc1	7.6%	1.4%	-9.7	-5.4%
CCCC(=O)Nc1cc(C(=O)O)ccc1Sc1ccc(C)cc1	-1.7%	-3.5%	-2.8	0.1%
CCc1ccc(S(=O)(=O)NC(=S)NC2CCCCC2)cc1	-6.3%	-1.8%	-5.5	6.9%
CCOc1ccc(/C=N/NC(=O)CSc2n[nH]c(=O)[nH]c2=O)cc1OC	10.1%	-5.0%	-3.7	0.2%
Cc1cccc(C)c1OCC(=O)OC/C(O)=C(\C#N)c1nc2ccccc2[nH]1	-18.4%	1.8%	-11.8	?
CN(C)/C=C(/C(=O)c1ccccc1)S(=O)(=O)c1ccc(Cl)cc1	-10.5%	-8.2%	1.8	-1.4%
CCN(CC(=O)NCc1cccs1)C(=O)COc1ccc(C(N)=O)cc1	11.5%	·	·	-1.8%
CC1=CC(C)(C)N2C(=O)C3(C(C#N)=C(N)Oc4cc(C)oc(=O)c43)c3cccc1c32 (configuration not stated)	4.7%	-3.6%	-2.7	0.2%
Cc1ccc(-c2csc(N3CCC[C@@H]3C(=O)NCCn3c(C(F)(F)F)nc4ccccc43)n2)cc1	6.4%	18.5%	·	3.2%
C=CCn1c(=O)c2c3c(sc2n2c(Nc4ccccc4)nnc12)CCCC3	2.7%	1.4%	-1.7	0.1%
O=C(NNC(=O)C1CCN(S(=O)(=O)c2ccc(Cl)cc2)CC1)c1ccccc1O	-2.3%	·	·	-2.7%
S=C1N(c2ccccc2)C(c2ccc(Br)cc2)N2CCCN12 (configuration not stated)	14.5%	-2.1%	-6.0	0.7%
CCS(=O)(=O)N1CCC(C(=O)NCCCN2CCCC2)CC1	-1.5%	1.0%	9.4	-0.8%
COc1ccccc1NC(=O)CCc1nnc2ccc(N3CCC4(CC3)OCCO4)nn12	15.8%	-0.7%	·	-0.3%
COc1ccc(N2CCN(Cc3nc4c(c(=O)[nH]c(=O)n4C)n3CCCc3ccccc3)CC2)cc1	1.1%	-1.2%	9.6	1.5%
(more compounds)
SMILES	Rango release inh	miR-21 FLuc	GLA inh pH 4.5	Rango-impB inh
CCCOc1c(Cl)cc(/C=N/O)cc1OCC	-2.6%	-5.9%	-9.8	-4.2%
Cc1ccc(/C=C2/SC(=S)N(C3CCCCC3)C2=O)o1	-6.6%	-1.4%	·	3.4%
O=C(N=C1SC2CS(=O)(=O)CC2N1c1ccc(Br)cc1Cl)C1CC1 (configuration not stated)	0.1%	-3.0%	·	0.0%
O=C(NC1CC1)C1CCN(C(=O)c2ccc(Cl)cc2)CC1	-1.0%	-0.3%	·	-4.7%
CC1CCCCC1NC(=O)CCNS(=O)(=O)c1cc(Br)cnc1N (configuration not stated)	18.0%	3.9%	·	-1.1%
Cc1nc2ccc(F)cc2cc1C(=O)Nc1cccc(Cl)c1C	-10.7%	0.6%	-4.2	-2.5%
Cc1ccc2c(c1)N(S(=O)(=O)c1ccc(CN3C(=O)c4cccnc4C3=O)cc1)CCO2	16.0%	0.7%	·	0.0%
Cc1[nH]nc2c1C(c1ccsc1C)C(C#N)=C(N)O2 (configuration not stated)	19.3%	-0.2%	3.9	-1.3%
Cn1cccc1C(=O)C(=O)Nc1ccc(Cl)cc1	9.6%	-30.6%	11.0	-0.8%
Cc1cc(C(=O)OC(C)C(=O)NC2CCCCC2C)c(C)o1 (configuration not stated)	4.8%	·	·	8.0%

The list is partial (hit frequency here may not be typical).
